Screens from PubChem.
MT1-MMP act inh: inhibitors of human MT1-MMP activation | hit rate 0.061% among 360,000 | HT1080 RFP-PRO-GFP cells, GFP/RFP ratio fluorescence, overnight; percent of plate control window, DMSO zero | P50281 | GFP/RFP ratio change, % at 20 µM;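 active = GFP/RFP ratio change of at least 30% with cell ATP level not reduced by more than half and red fluorescence within 50% of control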; also: strong numbers were not always called active
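Assay system – RFP-PRO-GFP reporter HT1080 cells · Compound dosing – single dose of 20 µM compound, 1% DMSO final · Incubation – overnight compound exposure at 37 °C · Measure – GFP/RFP fluorescence ratio · Benchmarks – DMSO wells and RFP-L50D-GFP cells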
eIF4H inh: inhibitors of RNA binding by human eIF4H; AID 2012; hit rate 0.94% among 290,000; inhibition, % at 35 µM; eIF4H fluorescence polarization binding assay;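 active = 50% or more with normal probe brightness, or confirmed in later tests; about a fifth of its hits are not listed in these tables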;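 also: calls also rest on retests at 20 µM and on dose response follow-up; 0% = protein and probe with vehicle and 100% = probe without protein; strong numbers were not always called active; many hits fall short of the cut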
Env fusion inh: inhibitors of HIV Env-mediated cell fusion. HeLa-JRFL Env/CEM21 cell fusion, luciferase. hit rate 1.1% among 360,000. inhibition, % at 12.3 µM;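 active = mean replicate inhibition score of at least 50 and every replicate individually at or above 50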;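 also: 0% = plate neutral controls and 100% = maraviroc near 300 nM; one replicate is shown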
CSC inhib: cancer stem cell inhibition. hit rate 1.1% among 300,000. AID 2717. cancer stem cell-like cells viability, luminescence. inhibition, % at 7.5 µM;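 active = mean at 75% or more and at least half the replicates too; tested in HMLE shEcad cells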;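 also: 0% = median of negative and 100% = median of positive control wells; the first replicate is given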
PABP polyA inh: PABP-poly(A) binding inhibition. inhibition, % at 35 µM. P11940. PABP-poly(A) RNA binding, fluorescence polarization. hit rate 1% among 290,000;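 active = 50% or more with normal probe brightness, or confirmed in later tests; about a fifth of its hits are not listed in these tables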;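 also: calls also rest on retests at 20 µM and on dose response follow-up; controls were probe without protein and protein plus probe with vehicle; some compounds called inactive have numbers as strong as hits; many hits fall short of the cut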
UUG fidelity: yeast start codon fidelity modulation; hit rate 0.13% among 350,000; activity score, % at 18.7 µM; S. cerevisiae UUG-firefly luciferase reporter, luminescence/redox ratio; AID 602363;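 active = replicate mean at a twofold rise or more, about +100% in these data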;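 also: firefly luciferase made from a UUG start codon reports start codon fidelity; reporter light over untreated wells divided by growth signal over untreated wells; some hits fall short of that in this replicate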
Rce1 inhib: inhibitors of yeast Ras-converting enzyme; Q03530; yeast membranes, quenched prenylated peptide cleavage fluorescence; calls only; hit rate 0.27% among 290,000;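 active = fall in fluorescence gain of 50% or more versus controls, with final raw signal at or below 3038400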;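 also: plate controls were neutral control wells for no effect and wells lacking membranes for full effect; tested at 10 µM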
Target sequence (Q03530 whole entry, looked up): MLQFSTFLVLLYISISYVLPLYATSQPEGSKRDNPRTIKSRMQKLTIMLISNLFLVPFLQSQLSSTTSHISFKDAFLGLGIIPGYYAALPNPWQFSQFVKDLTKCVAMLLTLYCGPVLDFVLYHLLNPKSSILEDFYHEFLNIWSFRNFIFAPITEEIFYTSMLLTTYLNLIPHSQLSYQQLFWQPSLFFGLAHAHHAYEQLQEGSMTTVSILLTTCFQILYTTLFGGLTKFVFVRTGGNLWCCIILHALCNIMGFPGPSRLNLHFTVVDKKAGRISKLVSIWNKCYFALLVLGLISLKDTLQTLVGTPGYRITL
eIF4H inh retest: further read-out of eIF4H inh, marked with its call; inhibition, %; compound at 20 µM; confirmation average;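 mean of two retest wells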
PABP polyA inh retest: second read-out of PABP polyA inh, no call of its own (marks repeat the call); inhibition, %; compound at 20 µM; confirmation repeats;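 mean of two retest wells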
MT1-MMP act inh RFP: further read-out of MT1-MMP act inh, marked with its call; RFP signal change, %; measured here: RFP expression control read;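 0 = vehicle wells; hits needed this value within 50% of zero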
* marks the source's active call; other numbers are inactive results; i = inactive; · = no result given; + = active, no number; & = joins results of further samples; [ ] = remark or other dose. Compounds as they come, and some 2.9% of all compounds hit somewhere here.

SMILES	MT1-MMP act inh	MT1-MMP act inh RFP	eIF4H inh	Env fusion inh	CSC inhib	PABP polyA inh	UUG fidelity	Rce1 inhib	others
COc1ccc(NCc2ccc(OC)c(Cn3ccnc3)c2)c(OC)c1	-2	-3	-9	-12	0	-2	-5	i
CCOC(=O)[C@H]1[C@H]2COc3ccc(Cl)cc3[C@@H]2N2C(=O)c3cc(OC)ccc3NC(=O)[C@@]12C	-6	-6	·	-100	-11	·	-8	·
COc1cccc(CNC(=O)COC(=O)/C(C#N)=C/c2ccc(N(C)C)cc2)c1	-5	0	·	3	-19	·	-26	·
COc1cc(NC(=O)CSc2nnc3ccc(-c4cccnc4)nn23)cc(OC)c1	2	4	·	11	-11	·	·	i
O=C1c2ccccc2CC1(Cc1ccccc1)Cc1ccccc1	-11	-10	-6	17	0	-2	30	i
CC(C)(C)N1C(=O)c2ccc(C(=O)O)cc2C1=O	1	3	-16	·	11	6	-19	i
Cc1cc(C(=O)OCC(=O)Nc2ccc(F)cc2)c(C)o1	7	4	7	-15	-9	4	-12	i
CC1CC(C)CN(C(=O)CCCn2c(=O)c3cccn3c3cccnc32)C1 (stereo not given)	3	2	-3	3	-14	-1	3	i
COc1ccc(CC(=O)N2CCN(c3ccc(F)cc3)CC2)cc1	0	2	7	6	10	10	6	i
COc1ccc(Nc2nnc(-c3ccc(O)cc3)c3ccccc23)cc1	5	-2	4	13	-13	1	-12	i
O=C(CS(=O)(=O)c1ccc(F)cc1)N1CCOCC1	1	7	-3	-25	-6	1	-8	i
CC(=O)N(c1ccccc1)C1CCCC1	-2	1	5	17	-9	2	-11	i
O=C(C1CCCN(S(=O)(=O)c2cccs2)C1)N1CCC(N2CCCCC2)CC1 (stereo not given)	1	6	-5	-19	7	0	-8	i
Cc1ccccc1Oc1ccc2c(c1)[C@@H]1C[C@H](N(C)C(=O)Nc3cc(Cl)cc(Cl)c3)[C@H]([C@H](C)O)C(=O)N1CC2	-2	-10	·	-18	·	·	-16	·
C/C(=N\Nc1ccc(S(N)(=O)=O)cc1[N+](=O)[O-])c1ccccc1O	4	1	-10	-95	-6	0	-23	i
CC(=O)N1c2ccc(S(=O)(=O)NCC3CCC(C(=O)NC4CCCCC4C)CC3)cc2CC1C (stereo not given)	-2	-17	1	4	-14	-1	-5	i
COCCNC(=O)CNC(=O)c1nn(-c2ccc(OC)c(Cl)c2)c(=O)c2ccccc12	1	4	-1	-4	6	-3	·	i
COc1cccc(C(=O)O/N=C(\N)Cc2ccc(Cl)cc2)c1	0	4	-3	-107	10	-10	10	i
CC1(C)Cc2c(sc(NC(=O)C(=O)N3CCCCC3)c2C(=O)O)CO1	0	2	-4	-1	9	3	-3	i
O=C(COc1ccc2c(c1)CCC2)N1CCc2ccccc21	-3	-6	-5	-76	17	-2	-20	i
Cc1cccc(N2C(=O)CC(Sc3nnc(C)s3)C2=O)c1 (stereo not given)	-1	4	0	·	-17	11	-11	i
CCOc1cc(C(=O)Nc2ccc(C)cc2C)ccc1OCC(=O)N1CCCCC1	-3	2	2	-5	0	0	·	i
CC(NS(=O)(=O)c1ccc(Br)cc1)c1ccccc1 (stereo not given)	-2	0	-20	8	-4	-5	-14	i
CCCNC(=S)NC1CCCC1	1	-1	-12	-21	-4	-7	-19	i
COc1cc(C(=O)NCc2cccnc2)ccc1OCC(=O)Nc1cccc(C(F)(F)F)c1	1	-29	·	13	17	·	-2	i
COc1cc(OC)c(C(=O)NNC(=S)NC2CCCCC2)cc1OC	11	3	0	·	8	-2	·	i
COCCNC(=O)C1(C)Cc2c(-c3cccc(C(F)(F)F)c3)ccnc2O1 (stereo not given)	-3	-9	·	5	·	·	-14	·
Cc1nnc2n1N=C(c1ccc3c(c1)NC(=O)CO3)CS2	·	·	2	6	-3	26	·	i
O=C(Nc1ccccc1C(=O)Nc1ccccn1)c1cccc([N+](=O)[O-])c1	8	-2	-17	-4	-2	0	-5	i
O=S(=O)(c1cccc(-n2cnnn2)c1)N1CCOCC1	1	5	-11	·	-6	-1	-19	i
Cc1ccc(S(=O)(=O)c2c(N)n(-c3ccccc3)c3nc4ccccc4nc23)cc1	-3	-5	-8	-9	-13	-10	·	i
CC(=O)c1ccc(S(=O)(=O)N2CCN(CCOc3ccc(Br)cc3)CC2)cc1	2	-30	·	20	6	·	1	·
CN(Cc1ccccc1)C(=O)COc1ccc(-c2nnco2)cc1	2	3	7	0	-7	-6	-11	i
CCCc1ccc(-c2cc(C(=O)Nc3ccc([N+](=O)[O-])cn3)c3ccccc3n2)cc1	0	-6	-5	-23	1	1	-14	i
CC(C)(C)[C@H]1COC(=O)[C@H](Cc2ccc(F)cc2)CC/C=C/C[C@@H](CC(=O)N[C@H](CO)Cc2ccccc2)C(=O)N1	-2	0	·	-15	·	·	1	·
COc1cc(NC(=O)CCN2CCN(C/C=C/c3ccccc3)CC2)cc(OC)c1	1	0	3	-12	-6	0	3	i
COCCn1nnnc1C(c1ccc(OC)c(OC)c1)N1CCc2ccccc21 (stereo not given)	-1	2	1	·	3	7	2	i
O=C(CCN1CCN(S(=O)(=O)c2cccc([N+](=O)[O-])c2)CC1)Nc1ccccc1F	-3	-1	-7	1	4	8	-14	i
O=C(N/N=C/c1ccccc1Cl)c1nc2ccc([N+](=O)[O-])cc2c(=O)[nH]1	4	0	80	14	-2	78	·	i	eIF4H inh retest=39;PABP polyA inh retest=42
COc1cc(C)c2occ(/C(C)=N\O)c2c1	3	1	-3	2	-12	-7	-13	i
COC(=O)c1ccc(N2CCOCC2)c(NC(=O)c2ccc(Br)o2)c1	-4	0	2	5	-19	4	-12	i
COc1ccc(OC)c(N/C(C)=C/C(=O)c2ccc(Br)cc2)c1	5	-7	-5	-4	43	9	·	i
COc1ccc2oc(C(=O)OCC(=O)N3CC(C)CC(C)C3)c(C)c2c1 (stereo not given)	6	1	·	6	·	·	·	i
CC1CCCCN1CCCNc1ccc(C(CC(N)=O)NC(=O)c2ccccc2)cc1[N+](=O)[O-] (stereo not given)	2	2	-8	-21	6	12	1	i
COc1ccc(OC)c(N(CC(=O)NCc2ccccn2)S(C)(=O)=O)c1	-6	-1	7	-83	-18	-1	-34	i
COc1ccc(C2=Nn3c(nnc3-c3ccncc3)SC2)cc1OC	-9	-7	-1	43	·	15	-5	i
CCOc1ccc(Br)cc1S(=O)(=O)Nc1cccc(S(=O)(=O)N(CC)CC)c1	1	1	-5	-5	6	-11	7	i
O=C(CCSc1ccccc1)NCC1CCCO1 (stereo not given)	-3	5	-10	8	-1	-5	-16	i
COc1ccc2nc(C)cc(SCC(=O)Nc3c(C)cc(C)cc3C)c2c1	4	-6	7	-1	15	4	-2	i
CN(C(=O)COC(=O)c1cccnc1Nc1ccccc1F)C1CCS(=O)(=O)C1 (stereo not given)	-1	8	8	16	-7	1	-7	i
COc1ccccc1NS(=O)(=O)c1cccc(C(=O)NCc2ccncc2)c1	5	-2	·	-3	-1	·	-16	i
Cc1ccc2cc(-c3noc(C4CCCCC4)n3)c(=O)[nH]c2c1	-1	0	-4	12	-12	0	-19	i
O=C(c1cc(C2CC2)on1)N1CCN(c2ccc(F)cc2)CC1	5	-5	-2	-4	-4	-2	20	i
C[C@@H]1O[C@@H](Oc2c(-c3cc(O)c(O)c(O)c3)oc3cc(O)cc(O)c3c2=O)[C@H](O)[C@H](O)[C@H]1O	3	3	84	5	22	-1	-23	i	eIF4H inh retest=0;PABP polyA inh retest=11
Clc1ccc(C2=NOC(c3nnc(-c4ccccc4)o3)C2)cc1 (stereo not given)	3	5	1	0	7	-2	-17	i
S=C1NC2(CCCC2)Nc2ccccc21	-5	2	2	16	5	3	-28	i
Cc1ccc(N/C(N)=N/c2nc3c(c(=O)[nH]2)CCCC3)c(C)c1	4	-13	-8	-63	·	-7	-23	i
O=C(NCCS(=O)(=O)N1CCC2(CC1)OCCO2)c1ccc(F)cc1	-5	2	·	9	·	·	-14	i
O=C1NC[C@H](Cc2ccccc2)N(C[C@H]2CCCN2C[C@H](Cc2ccccc2)N2C[C@H](Cc3ccccc3)N(CCc3ccccc3)C(=O)C2=O)C1=O	-2	-5	·	-38	·	·	-6	·
COc1ccc(OC)c2nc(-c3ccncc3)ccc12	-3	-2	-10	-20	5	1	-10	i

(listing goes on)
SMILES	MT1-MMP act inh	MT1-MMP act inh RFP	eIF4H inh	Env fusion inh	CSC inhib	PABP polyA inh	UUG fidelity	Rce1 inhib	others
CCOC(=O)C1CCCN(Cc2cc(=O)oc3cc(C)c(C)cc23)C1 (stereo not given)	-3	-2	6	6	-2	0	·	i
CC(C)C[C@H](NC(=O)N1CCn2c1nc1ccccc12)C(=O)NCc1ccco1	0	1	0	-7	6	7	-13	i
Cc1c(CBr)[n+](=O)c2c(n1[O-])C(Br)CCC2Br (stereo not given)	0	1	-6	-5	-11	34	·	i
O=C(CSc1n[nH]c(-c2ccc(S(=O)(=O)N3CCCCC3)cc2)n1)Nc1nccs1	-3	-14	4	·	-2	7	·	+
S=c1[nH]nc(COc2ccccc2)n1Cc1ccccc1	6	0	-13	·	·	-9	·	i
Cc1cccc(NC(=S)NCCCN2CCOCC2)c1	2	5	4	-14	-13	-5	-10	i
Cc1ccc(/C=N/NC(=O)CSc2nc3ccccc3c(=O)n2-c2ccccc2)s1	5	5	-14	-24	·	1	·	i
c1ccc(N2CCN(c3ccc4nncn4n3)CC2)nc1	1	4	-11	2	7	-14	-18	i
O=C(C1=C[C@H](c2ccc(C(F)(F)F)cc2)C[C@H](OCCCCO)O1)N1CCN(Cc2ccc3c(c2)OCO3)CC1	4	-5	-10	17[16.7 µM]	18	-13	0&-2	i
CC(C)(C)c1ccc(OCc2ccc(C(=O)N/N=C/c3ccc(O)c(O)c3)cc2)cc1	-24	-22	-8	3	89*	-13	·	i
CCN(C(=O)CSc1nnc2nc(C)cc(C)n12)c1ccccc1	-1	-1	-4	7	-3	7	·	i
CCCC(=O)C1=C(N(C)c2ccccc2)CC(C)(C)CC1=O	4	5	-8	8	-8	-2	-9	i
CCCCn1nc(C(=O)Nc2cccc(C(=O)NC3CC3)c2)c2ccccc2c1=O	2	1	·	·	4	·	9	·
CCOCC(=O)Nc1cc(OC)c(Cl)cc1OC	-1	2	-6	-61	·	2	-4	i
COc1cccc(N2C(=NC(=O)COc3ccccc3)SC3CS(=O)(=O)CC32)c1 (stereo not given)	-1	-3	0	-9	4	10	-12	i
CCCCCC(=O)N1C[C@H](O)[C@@H](n2cc(C3CC3)nn2)C[C@@H]1c1ccc(C)cc1	0	4	·	9	·	·	8	·
C/C(=N\NC(=O)CSc1nc(C)cc(C)n1)c1cccs1	1	6	-5	0	-7	1	-7	i
S=C(NCCc1ccccc1)Nc1cccc2cnccc12	4	-27	9	19	14	9	-30	i
COc1ccc(/C=C/C(=O)c2ccccc2O)cc1CN1CCOCC1	-5	-1	-4	·	-22	-3	16	i

For convenience, part of the list above:
SMILES	MT1-MMP act inh	MT1-MMP act inh RFP	eIF4H inh	Env fusion inh	CSC inhib	PABP polyA inh	UUG fidelity	Rce1 inhib	others
COc1cccc(N2C(=NC(=O)COc3ccccc3)SC3CS(=O)(=O)CC32)c1 (stereo not given)	-1	-3	0	-9	4	10	-12	i
CCCCCC(=O)N1C[C@H](O)[C@@H](n2cc(C3CC3)nn2)C[C@@H]1c1ccc(C)cc1	0	4	·	9	·	·	8	·
C/C(=N\NC(=O)CSc1nc(C)cc(C)n1)c1cccs1	1	6	-5	0	-7	1	-7	i
S=C(NCCc1ccccc1)Nc1cccc2cnccc12	4	-27	9	19	14	9	-30	i
COc1ccc(/C=C/C(=O)c2ccccc2O)cc1CN1CCOCC1	-5	-1	-4	·	-22	-3	16	i
